# SARS PLP yeast = qHTS of Yeast-based Assay for SARS-CoV PLP | S. cerevisiae expressing SARS-CoV PLpro, growth rescue; control for the full effect not named in the record | Potency, µM (doses to about 32.9 µM), without a hit: at the highest dose activity, positive = growth rescue | hit rate 0.19% among 330,000 | AID 485353, 2010; further: 0% is about no effect; nearly all actives have a fitted effect of over 55% in size; growth read by luminescence after 48 h
# Lassa entry inh = qHTS for Inhibitors of binding or entry into cells for Lassa Virus; hit rate 1.2% among 300,000; Potency, µM (top dose mostly 37.9 µM), inactives show at the top dose activity change, negative = inhibition, hits mostly inhibitors; Lassa virus pseudotype entry inhibition, cell reporter; control for the full effect not named in the record; AID 540256, 2011; active means well fitted inhibition curve with a large enough effect; inconclusive means small, poorly fitted or top-dose-only effect, or effect the other way; inactive means flat fitted curve, though single readings scatter; tested in HEK293 cells; further: on the % scale 0 is the no-effect control and ±100 the full control effect; nearly all actives have a fitted effect of over 50% in size; luciferase read-out
# 2A StopGo = High Throughput Screening for Foot and Mouth Disease Virus Antivirals; human cells with a luciferase reporter of 2A StopGo recoding; control for the full effect not named in the record; Potency, µM (highest dose often 57.9 µM), for inactives: at the highest dose signal change, negative = less light; hit rate 1.2% among 410,000; active = well fitted falling curve with a large enough effect; inconclusive = small, poorly fitted or top-dose-only effect; inactive = no such curve, though single readings can be large or run the other way; tested in HEK293T cells; further: on the % scale 0 is the no-effect control and ±100 the full control effect; nearly all actives have a fitted effect of over 45% in size; luciferase light after 4 h
# NS1 function inh = qHTS Assay for Inhibitors of Influenza NS1 Protein Function; S. cerevisiae slowed by influenza A NS1, growth recovery by OD600; Potency, µM (titrated, usually from 46.1 µM), for the others: at the top dose activity, positive = more growth; hit rate 0.4% among 270,000; AID 2326, 2010; further: actives are rising curves; nearly all actives have a fitted effect of over 50% in size
#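 Compounds were scored for reversing the slow growth caused by influenza A NS1 in S. cerevisiae, measured by optical density at 600 nm. Assay medium contained 2% galactose at pH 6.0; NS1-free yeast of the same strain were the positive control.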
# Cruzain Triton = qHTS Assay for Promiscuous and Specific Inhibitors of Cruzain (with detergent); Cruzipain (Trypanosoma cruzi), P25779; purified cruzain, Z-FR-AMC fluorescence, 0.01% Triton; Potency, µM, for inactives: max response, negative = inhibition, actives largely listed as inhibitors; hit rate 0.43% among 200,000; active means well fitted curve in the direction sought with a large enough effect; inconclusive means small, poorly fitted or top-dose-only effect, or another doubt; inactive means no such curve, though single readings can be large; an effect the other way counts as inactive or inconclusive;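 further: plate controls were neutral wells for no effect and buffer without enzyme for full effect; nearly all actives have a fitted effect of over 40% in size; top concentration of the series not given in the record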
# Target sequence (P25779 123-467 limits assumed): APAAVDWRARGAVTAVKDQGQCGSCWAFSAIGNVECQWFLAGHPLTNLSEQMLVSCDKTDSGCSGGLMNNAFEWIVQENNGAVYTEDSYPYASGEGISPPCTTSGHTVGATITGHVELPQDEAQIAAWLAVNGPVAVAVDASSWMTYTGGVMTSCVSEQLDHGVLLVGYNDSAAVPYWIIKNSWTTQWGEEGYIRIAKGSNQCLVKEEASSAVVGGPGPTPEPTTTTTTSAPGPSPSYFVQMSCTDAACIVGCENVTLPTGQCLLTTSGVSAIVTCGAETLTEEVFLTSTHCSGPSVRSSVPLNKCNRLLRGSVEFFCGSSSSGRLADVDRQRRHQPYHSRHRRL
#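 15 min RT preincubation of 1.5 nM cruzain with compound, then 2 uM Z-FR-AMC added; kinetic AMC fluorescence, 60 s delta. Triton X-100 0.01%, pH 5.5.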
# Marburg entry inh = qHTS for inhibitors of binding or entry into cells for Marburg Virus. Marburg virus pseudotyped entry inhibition, cell reporter; control for the full effect not named in the record; about a third of the inactives were read at about 46 µM. Potency, µM (doses to about 37.8 µM), for inactives: at the top dose activity change, negative = inhibition, usual class: inhibitors. hit rate 1.8% among 300,000. AID 540276, 2011; active = well fitted inhibition curve with a large enough effect; inconclusive = small, poorly fitted or top-dose-only effect, or effect the other way; inactive = flat fitted curve, though single readings scatter; tested in HEK293 cells; about a fifth of its hits are not listed in these tables; further: on the % scale 0 is the no-effect control and ±100 the full control effect; luciferase read-out
# Cruzain noTriton = qHTS Assay for Promiscuous and Specific Inhibitors of Cruzain (without detergent). Cruzipain (Trypanosoma cruzi), P25779. purified cruzain, Z-FR-AMC fluorescence, no detergent. Potency, µM, without a hit: max response, negative = inhibition, usual class: inhibitors. hit rate 2.3% among 200,000; active means well fitted curve in the direction sought with a large enough effect; inconclusive means small, poorly fitted or top-dose-only effect, or another doubt; inactive means no such curve, though single readings can be large; an effect the other way counts as inactive or inconclusive;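 further: plate controls were enzyme without inhibitor for no effect and buffer without enzyme for full effect; nearly all actives have a fitted effect of over 40% in size; top concentration of the series not given in the record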
#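 Detergent-free condition (0.00005% Triton X-100) in acetate buffer pH 5.5 with DTT. 1.5 nM enzyme and compound were pre-mixed 15 min, then 2 uM Z-FR-AMC substrate added; reaction progress from fluorescence change between first and third reads (60 s).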
# RE007 growth inh = qHTS Assay for Inhibitors of the HIV-1 protein Vpr; S. pombe RE007 Vpr strain, BacTiter-Glo ATP luminescence, 24 h; control for the full effect not named in the record; Potency, µM (titrated, usually from 92.2 µM), for the others: at the highest dose activity change, negative = less growth; hit rate 0.21% among 360,000; AID 651644, 2012; active = well fitted falling curve with a large enough effect; inconclusive = small, poorly fitted or top-dose-only effect; inactive = no such curve, though single readings can be large or run the other way;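 further: on the % scale 0 is the no-effect control and ±100 the full control effect; nearly all actives have a fitted effect of over 50% in size; the assay follows cell death caused by Vpr and the record does not say whether a fall means rescue or toxicity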
#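 Fission yeast strain RE007, carrying one chromosomally integrated HIV-1 vpr copy, was seeded at OD 0.01 in PMG+AL medium with 23 nL pinned compound. After 24 h at 30 °C and 99% humidity, viability was read by BacTiter-Glo luminescence.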
# Numbers without * were called inactive; ? = inconclusive; / = not tested or not shown; & = joins results of further samples; [ ] = another dose, or the depositor's remark. Unless noted, the call rests on the fitted dose curve; in most records, active means well fitted rising curve with a large enough effect; inconclusive means small, poorly fitted or top-dose-only effect; inactive means no such curve, though single readings can be large or run the other way. Potency means the concentration at half of the fitted maximal effect. Compounds were not picked by outcome, and some 4.8% of all compounds hit somewhere here.
SMILES,SARS PLP yeast,Lassa entry inh,2A StopGo,NS1 function inh,Cruzain Triton,Marburg entry inh,Cruzain noTriton,RE007 growth inh
Cc1ccsc1CNS(=O)(=O)c1ccc(F)cc1,2%,/,75%[activator],6%,/,/,/,-4%
Cc1ccc(Cl)cc1NC(=S)NN,0%,/,-15%,7%,/,/,/,15%
c1ccc2c(c1)cnc1ccccc12,-1%,4%,23%&0%,-35%,/,22%&1%,/,5%&-1%
O=C(c1ccc(Cn2c(=O)[nH]c3ccccc3c2=O)cc1)N1CCN(c2ccc(F)cc2)CC1,-6%,12%,?,-50%,-6.0%,-26%,20%,20%
CCO[C@@H]1OC(C(=O)N2CCN(Cc3ccccc3)CC2)=C[C@H](c2csc3ccccc23)[C@H]1CCCO,-1%,/,?,-9%,/,/,/,-1%
Cc1nc(SCc2ccccc2)c2oc3ccccc3c2n1,-1%,?,0%,1%,/,?,/,4%
COc1cccc(NC(=O)COC(=O)c2nc(Cl)ccc2Cl)c1,-1%,22%,-3%,/,/,6%,/,14%
Cc1ccc(CNC(=O)c2ccc(CS(=O)(=O)Cc3ccc(F)cc3)o2)cc1,/,-14%[46.1 µM],-29%,/,3.7%,/,-9%,/
O=C(NC(=S)NCc1ccc(Cl)cc1)c1ccco1,7%,?,-13%,/,/,?,/,-5%
COc1cccc(CN(C)CC2CCCN(CCc3ccccc3C)C2)c1 (stereo not given),-1%,/,-23%,-6%,/,/,/,5%
O=S(=O)(c1cnc(Cl)c(Br)c1)N1CCN(c2ncccn2)CC1,2%,/,-16%,1%,/,/,/,-5%
Cc1cc(N2CCNCC2)nc2ccccc12,11%,13%[46.1 µM],-4%,6%,/,?,/,?
O=[N+]([O-])c1ccccc1CN1CCN(Cc2ccc3ccccc3c2)CC1,2%,/,-19%,-8%,/,/,/,-20%
O=C(c1ccc2c3n(nc2c1)-c1ccccc1CO3)N1CCOCC1,-16%,/,42%[activator],2%,/,/,/,?
CC(=O)Nc1ccc(Nc2c(CCC(C)C)c(C)c(C#N)c3nc4ccccc4n23)cc1,/,?,-8%,/,6.1%,?,-2%,/
COc1ccc(-n2nc(C)c3sc(C)nc3c2=O)cc1,-2%,28%,5%,2%,/,-27%[46.1 µM],/,6%
O=C(NCc1ccccc1)C(c1ccco1)N(C(=O)c1ccccn1)c1ccc(F)cc1 (stereo not given),2%,-5%,-14%,/,/,?,/,12%
COc1ccc(C(C(=O)NC2CCCC2)N(C(=O)c2ccoc2C)c2ccc(C)c(C)c2)cc1 (stereo not given),-29%,?,-9%,15%,-4.0%,?,-5%,-5%
OC(CN1CCOCC1)C12CC3CC(CC(C3)C1)C2 (stereo not given),0%,9%,/,4%,-5.1%,11%,-10%,-13%
Cc1ccc(C(=O)N/C(=C\c2ccco2)C(=O)NCCCN2CCOCC2)cc1C,0%,1%,-3%,1%,/,3%[46.1 µM],/,10%
O=C(CSc1nnc(Cc2ccccc2)o1)Nc1ccc2c(c1)OCO2,15%,0%,-9%,14%,1.9%,17%,3%,12%
C=CCOC(=O)CSCC(NC(=O)OC(C)(C)C)C(=O)OCC (stereo not given),1%,1%,-15%,-1%,5.0%,-14%[46.1 µM],-1%,1%
Cc1cc(C)cc(NC(=O)NCc2ccccn2)c1,-2%,/,-1%,0%,/,/,/,12%
CC(C)c1ccc(N(C(=O)c2snc(C(N)=O)c2N)C(C(=O)NC2CCCC2)c2ccncc2)cc1 (stereo not given),0%,-30%[46.1 µM],-3%,-3%,/,?,/,-14%
COc1cc(NS(=O)(=O)c2cn(C)cn2)cc(OC)c1OC,26%,19%[46.1 µM],-12%,-8%,/,18%[46.1 µM],/,3%
CCOc1ccc(N2C(=O)c3ccc(C(=O)OCC(=O)N(CC)C4CCS(=O)(=O)C4)cc3C2=O)cc1 (stereo not given),1%,-26%[46.1 µM],3%,/,/,11%[46.1 µM],/,13%
O=C(Nc1ccccc1)c1ccccc1O,-23%,7%,0%,-110%,-3.3%,?,9%,-30%
Cc1cc(Cl)ccc1OCC(=O)N[C@@H](Cc1ccccc1)c1nc2ccccc2[nH]1,?,?,-15%,-5%,-0.4%,?,-17%,1%
Cc1ccc(CNC(=O)C2CCN(C(=O)Nc3ccc(C)cc3)CC2)cc1,18%,?,-13%,21%,/,18%,/,2%
CCOc1ccccc1OCCCC(=O)Nc1nc2ccccc2[nH]1,2%,-4%,8%,/,/,?,/,-9%
COCCNC(=O)c1ccc(C)cc1C,1%,2%,22%,4%,/,?,/,-4%
C=CCC1(CC=C)CCCN1C(=O)c1cc(COc2ccccc2SC)on1,1%,-26%,4%,-30%,/,-27%,/,19%
CCOC(=O)C1CCN(C(=O)c2cc3ccc4cccnc4c3[nH]2)CC1,/,?,28%,/,-8.3%,/,-2%,/
Brc1cc2c(cc1CN1CCN(c3ccccc3)CC1)OCCO2,-2%,?,-28%,-5%,/,?,/,5%
CN1CCCN(C(=O)CNC(=O)Cc2ccccc2)CC1,0%,6%[46.1 µM],-7%,/,/,0%[46.1 µM],/,-10%
COc1ccccc1NC(=O)CCN1CCCCC1,/,-3%[46.1 µM],-19%,/,-0.1%,/,3%,/
CC(C)c1ccc(NC(=O)C2CCCN(S(=O)(=O)c3cnc[nH]3)C2)cc1 (stereo not given),20%,/,-14%,-2%,-4.7%,/,25%,3%
Cc1nc(-c2ccccc2)nc(Cl)c1Cl,0%,-7%[46.1 µM],12%,/,/,?,/,9%
O=c1[nH]c(/C(Cl)=C/c2cccc(F)c2)nc2cc(C(F)(F)F)ccc12,1%,7%,-4%,/,/,17%[46.1 µM],/,-4%
O=C(c1ccco1)N1CCN(c2ncnc3c2nnn3Cc2ccccc2Cl)CC1,-19%,-13%,?,-25%,-11%,-25%,?,?
CC(C)(C)C1(C)OC(C(=O)NC2CCCCC2)C(C(=O)NC2CCCCC2)O1 (stereo not given),0%,-14%,-4%,-10%,0.9%,?,2%,-2%
CC1(C)CC2CC(C)(CN2S(=O)(=O)c2ccc(C(=O)Nc3cc(S(=O)(=O)N4CCOCC4)ccc3Cl)cc2)C1 (stereo not given),0%,?,-6%,?,-0.2%,?,3%,3%
Cn1c(N/N=C/c2ccccc2)nc2sc3c(c2c1=O)CCC3,-11%,-5%,-3%,-1%,-8.0%,-12%,?,-26%
CCCCC(=O)N/N=C/c1c(O)n(Cc2ccc(F)cc2)c(=O)[nH]c1=O,1%,-7%,-13%,-6%,/,?,/,-4%
COc1ccc(CCn2c3c(c(=O)[nH]c2=O)C(NC(=O)c2ccccc2)(C(F)(F)F)C(=O)N3)cc1OC (stereo not given),/,14%[46.1 µM],-8%,/,-2.1%,11%[46.1 µM],8%,/
CCC1(CC)Cc2ccccc2-c2nc(-c3ccccc3)oc(=O)c21,6%,15%,-13%,1%,-0.9%,-10%,?,-1%
COc1ccc(/C(C)=N/NC(=O)CNC(=O)Cc2ccccc2)c(OC)c1,0%,/,-13%,2%,/,0%,/,-12%
Cc1nc([N+](=O)[O-])cn1CC(=O)c1ccc(Cl)cc1,-4%,/,-27%,0%,/,/,/,17%
CC(=O)OCC(=O)C1(O)CCC2C3CC(C)C4=CC(=O)C=CC4(C)C3(F)C(O)CC21C (stereo not given),/,-25%[46.1 µM],-6%,/,/,-18%[46.1 µM],/,2%
O=C(NNC(=O)C1CC=CCC1)c1ccccc1Br (stereo not given),-3%,?,56%[activator],14%,/,-6%,/,-1%
CC(C)c1ccc(NC(=O)CCNS(=O)(=O)c2cccc3nsnc23)cc1,-6%,-13%[46.1 µM],12%,-1%,-4.9%&0.1%,24%[46.1 µM],-2%&5%,-9%
Cc1ccccc1OCC(=O)Nc1nnc(S(=O)(=O)N(C)c2ccccc2)s1,/,5%[46.1 µM],10%,/,-1.0%,/,0%,/
CCc1ccc(N2C(=O)c3cc(N4CCOCC4)c([N+](=O)[O-])cc3C2=O)cc1,-5%,3%,/,11%,3.1%,-23%,?,/
O=C(NCCCN1CCCC1=O)c1cccc(S(=O)(=O)N2CCN(c3ccc(F)cc3)CC2)c1,-2%,0%,-25%,-4%,/,-5%,/,1%
O=C(CN(C(=O)CCC(=O)Nc1ccccn1)c1cccc(F)c1)NCc1ccc(F)cc1,-1%,-14%,-1%,1%,/,?,/,-1%
COCCCNC(=O)CSc1nc2ccc(N3CCOCC3)cc2c(=O)n1CCc1ccccc1,/,9%,-6%,-58%,/,16%&16%,/,-2%
CC(O)C1C(=O)OC2(C)CC(C)(C)NC(=S)N12 (stereo not given),23%,5%,34%[activator],11%,3.2%,8%,-6%,?
O=S1(=O)NC(C2CC2c2ccccc2)CCO1 (stereo not given),-6%,/,-12%,25%,/,/,/,-9%
Cc1cc(-c2nnc(SCC(=O)Nc3ccccc3C)n2N)n[nH]1,4%,2%[46.1 µM],-3%,0%,/,-8%[46.1 µM],/,6%
CCOc1ccc2ccccc2c1C(=O)Nc1cc(=O)n(C)c(=O)n1C,2%,/,-17%,-5%,-1.1%,/,-8%,14%
CN(C)C(Cc1ccc(Cl)cc1)C(=O)c1ccccc1 (stereo not given),7%,7%,25%,15%,-2.4%,?,-13%,1%
O=S1(=O)CC/C(=N\Nc2ccccc2)c2ccsc21,-2%,/,21%,-44%,/,/,/,-3%
COC(=O)c1cc(C)nc2c1c(=O)nc(SCc1cccc(C)c1)n2C1CC1,/,16%[46.1 µM],-21%,/,3.0%,/,4%,/

# Assay outcomes from PubChem BioAssay.
